Compound activity (PubChem BioAssay)
Vaccinia mCherry: vaccinia inhibition (mCherry reporter); 0.63% of 310,000 active; Vaccinia virus mCherry reporter infection, fluorescence; about a quarter of the inactives have no number; Potency, µM (highest dose often 36.5 µM), for inactives: at the highest dose activity change, negative = inhibition, actives largely listed as inhibitors; active = well fitted inhibition curve with a large enough effect; inconclusive = small, poorly fitted or top-dose-only effect; inactive = no such curve, though single readings can be large or run the other way; tested in A549 cells; also: nearly all actives have a fitted effect of over 35% in size; inactives centre near -10
VACV Venus inh: vaccinia inhibition (Venus reporter) | Potency, µM (highest dose often 36.5 µM), for inactives: top-dose activity change, negative = inhibition, usual class: inhibitors | 0.46% of 330,000 active | Vaccinia virus Venus reporter expression, fluorescence; active means well fitted inhibition curve with a large enough effect; inconclusive means small, poorly fitted or top-dose-only effect; inactive means no such curve, though single readings can be large or run the other way; tested in A549 cells; also: nearly all actives have a fitted effect of over 30% in size; inactives centre near -10
An asterisk follows results filed as active; i = inactive; ? = inconclusive; / = no result given; & = joins results of further samples; [ ] = remark or other dose. % is scaled to controls: 0 for no effect and ±100 for the full control effect; potency is read from the fitted curve at half-maximal effect. Not a hit list (roughly 0.87% active in at least one column).

SMILES	Vaccinia mCherry	VACV Venus inh
Cc1cc(Cl)ccc1C(O)c1ncc(-c2cccc(F)c2)[nH]1 (configuration not stated)	23.9%	-12.1%
C#CCOCCOCCOCCNc1nc(N2CCN(C(=O)[C@H](CCCN=C(N)N)n3cc(C(N)[C@H](C)CC)nn3)CC2)nc(N2CCN(C(=O)[C@H](CCCN=C(N)N)n3cc(C(N)[C@@H](C)CC)nn3)CC2)n1 (some centres not stated)	-19.4%	4.6%
CCOC(=O)[C@]12CCCC=C1N(Cc1ccc3c(c1)OCO3)C(=O)[C@H](CC(=O)N1CCN(C(=O)C3CC3)CC1)C2	25.7%	-2.9%
C=CCNC(=O)c1ccccc1NC(=O)c1cccc2ccccc12	-23.4%	-15.1%
COc1cccc(C2CC(c3ccc(Cl)cc3Cl)n3nc(N)nc3N2)c1 (configuration not stated)	-6.1%	-1.7%
COc1cccc(CNC(=O)N2CCc3c(sc4c3CCCC4)C2c2ccc(F)cc2)c1 (configuration not stated)	?	-28.3%
CCCCc1ccc(NC(=S)Nc2ccc(Cl)c(S(=O)(=O)N(C)C)c2)cc1	-10.6%	-22.0%
CN(CCc1ccccc1)C(=O)c1ccc(NC(=O)Cc2ccc(NC(=O)C3CCCN(C(=O)C4CC4)C3)cc2)cc1 (configuration not stated)	-2.2%	-7.5%
C[C@H](CO)N1C[C@H](C)[C@H](CN(C)Cc2ccccc2)Oc2c(NC(=O)Nc3ccc(F)cc3)cccc2C1=O	-24.0%	?
Cc1cccc(S(=O)(=O)N(C)C[C@@H]2OCc3cn(nn3)CCCC(=O)N([C@H](C)CO)C[C@H]2C)c1	-28.9%	-14.7%
Cc1cccc(S(=O)(=O)N2CCC(CO)(Cc3ccccc3)CC2)c1	i	-14.9%
NC(=O)c1cc2n(n1)C(C(F)(F)F)CC(c1ccco1)N2 (configuration not stated)	?	-10.5%
CCOc1ccccc1NC(=O)CCNC(=O)C1CCN(S(=O)(=O)c2ccccc2)CC1	i	-6.7%
CCN(CC(=O)NCc1cccs1)C(=O)c1ccc(NS(=O)(=O)c2ccc(C(C)=O)cc2)cc1	-12.5%	-10.6%
Cc1cccc(CNC(=O)CCCn2c(=O)c3cccn3c3ccc(F)cc32)c1	-13.7%	-11.8%
Cc1cc(C)n(-c2nnc(C)n2N)n1	/	-2.2%
CCCOc1ccc(-c2nc(N3CCCCC3)c3ccccc3n2)cc1	-0.7%	-1.2%
Cn1c(=O)n(CCc2ccccc2)c(=O)c2c1ncn2Cc1ccccc1	-12.3%	?
COc1ccc(/C=C/C(=O)c2cc(O)ccc2O)cc1	?	?
CCOc1ccc(NC(=O)CN2CCN(CC(=O)Nc3cccc(F)c3)CC2)cc1	/	-6.3%
COc1ccc(-c2cc(C)no2)cc1S(=O)(=O)N1CCN(c2ccccc2F)CC1	i	?
O=C(Cc1ccccc1)NN1C(=O)C2C3C=CC(C3)[C@@H]2C1=O (some centres not stated)	i	-8.0%
COc1cc(SC)ccc1C(=O)Nc1ccc2c(c1)CCC2	i	-15.1%
Cn1nccc1C(=O)c1ccc(Cl)cc1	i	-17.9%
Cc1cccc(-c2noc(CN(C)C(=O)c3ccco3)n2)c1	-6.8%	11.1%
O=C(COc1ccccc1[N+](=O)[O-])Nc1cccc(S(=O)(=O)N2CCCC2)c1	-7.2%	-20.4%
CCCCOc1ccc(C(=O)Nc2nnc3n2CCS3)cc1	-17.8%	-16.5%
COCCCNC(=O)CN1C(=O)c2cccc3cccc1c23	-10.6%	-7.5%
O=C(CO/N=C\c1ccccc1)Nc1ccccc1C(=O)N1CCOCC1	-17.3%	-11.0%
CC[n+]1c(/C=C/C=C/N(C(C)=O)c2ccccc2)sc2cc(OC)ccc21	178.7%[activator]	/

Given as labelled records: part of the list above
> Cn1nccc1C(=O)c1ccc(Cl)cc1
  Vaccinia mCherry = i
  VACV Venus inh = -17.9%

> Cc1cc(C)n(-c2nnc(C)n2N)n1
  Vaccinia mCherry = /
  VACV Venus inh = -2.2%

> CC[n+]1c(/C=C/C=C/N(C(C)=O)c2ccccc2)sc2cc(OC)ccc21
  Vaccinia mCherry = 178.7%[activator]
  VACV Venus inh = /

Later entries
SMILES	Vaccinia mCherry	VACV Venus inh
COc1ccc(NC(=S)N2CCN(C(c3ccccc3)c3ccccc3)CC2)cc1OC	?	-22.9%
COc1cc(=O)n(C)c2c(OCC(O)C(C)(C)O)cccc12 (configuration not stated)	-8.6%	-14.4%
Cc1ccc(NC2=C(N3CCOCC3)C(=O)c3ccccc3C2=O)cc1	-10.9%	-28.0%
Cc1nn(Cc2cccc(C(=O)NC34CC5CC(CC(C5)C3)C4)c2)c(C)c1Br	i	-16.9%
Cc1nc(N2CCN(S(=O)(=O)c3ccccc3)CC2)c2c3c(sc2n1)CC(C)CC3 (configuration not stated)	-1.2%	-0.5%
Cn1c(=O)c2c(nc(Sc3ncccn3)n2Cc2ccc(Cl)cc2)n(C)c1=O	-7.6%	-15.2%
O=C(Nc1ccc2c(c1)OCO2)c1ccc(Br)s1	?	-22.0%
CC(=O)N1CCCc2cc(S(=O)(=O)Nc3ccccc3C)ccc21	-27.2%	-11.9%
COc1ccccc1CNc1ncccn1	i	-0.3%
COc1ccc(C2(NC(C)=O)CCN(C(=O)CCC(=O)O)CC2)cc1	-16.8%	-16.8%
COc1ccc(N(C(C)=O)S(=O)(=O)c2cc(OC)ccc2OC)cc1	/	-27.1%
O=C(Cc1csc2ccccc12)NCC1CC1	7.1%	-0.7%
CN1CCN(NC(=O)c2ccc(Cl)s2)CC1	i	-17.4%
Cc1ccc(-n2c(SCC(=O)Nc3ccc(C(=O)O)cc3)nnc2-c2ccncc2)cc1	i	-7.1%
NC1=NC(=O)/C(=C/c2ccc(Cl)cc2Cl)S1	-1.2%	-2.5%
O=C(COc1cccc(Cl)c1)Nc1ccc2c(c1)CCC2	-19.7%	-16.1%
COCCNc1nc(NCCCN2CCCC2=O)c2sc(-c3ccccc3)cc2n1	-16.2%	-16.6%
Cc1ccc(C(=O)Nc2ccc3nc(C)sc3c2)o1	?	-21.6%
O=C(CCc1nc2ccccc2c(=O)[nH]1)OCc1ccc(-c2ccccc2)cc1	-11.9%	-10.0%
CCN(CC)CCN1C(=O)C(=O)/C(=C(/O)c2ccc(OC)cc2)C1c1ccco1 (configuration not stated)	-11.4%	0.2%
O=C(O)CC1=C(O)C(=O)N(c2ccccc2)C1c1ccccc1 (configuration not stated)	/	-3.3%
COC(=O)CC1=C(C)C(=O)CC2C(C)(C)CCCC12C (configuration not stated)	-1.5%	-2.9%
Cc1noc(C)c1COc1ccc(C(=O)NCc2cccs2)cc1	-16.8%	-19.6%
O=C(O)c1ccc(N=C2SCC(=O)N2Cc2ccccc2)cc1	i	-3.9%
CC1CCCC(NC(=O)COC(=O)CSc2ccc3ccccc3c2)C1C (configuration not stated)	i	-0.5%
Cc1ccc(NC(=S)NCCN(C2CCCCC2)C2CCCC2)cc1C	?	-19.7%
CCOc1ccc2c(=O)c(Oc3ccccc3OCC)coc2c1	-8.6%	-3.3%
NS(=O)(=O)c1ccc(N/N=C/c2cn(-c3ccccc3)nc2-c2cccs2)cc1	-19.9%	?
COc1ccccc1NC(=O)CCN1C(=O)C2CC=C(Cl)CC2C1=O (configuration not stated)	-17.7%	-14.3%
O=C1CN(S(=O)(=O)c2cc(Cl)ccc2Cl)c2ccccc2N1	i	-10.3%
CCCS(=O)(=O)NC(=O)C1(C)CCN(C(=O)c2ccc(F)c(Cl)c2)C1 (configuration not stated)	12.0%	4.1%
O=S(=O)(Nc1ccc(F)cc1)N1CCCCCC1	/	-18.5%
COc1cc2cc(C)nc(Cc3cccc4ccccc34)c2cc1OC	2.2%	8.4%
Cc1cc(-c2csc(NC(=O)c3ccc(=O)[nH]c3)n2)c(C)n1Cc1ccco1	-23.0%	3.6%
COc1cccc(C2C(C(=O)c3cc4ccccc4o3)=C(O)C(=O)N2c2cc(C)on2)c1OC (configuration not stated)	/	-5.9%
OCC1(Cc2ccccc2C(F)(F)F)CCN(Cc2ccccc2)CC1	-3.5%	-15.7%
COc1ccccc1-c1nc(=S)c(C(C)=O)c(C)[nH]1	-7.6%	-4.8%
CC(O)C(=O)N/N=C/c1cccc2ccccc12 (configuration not stated)	i	3.9%
CC(=O)N1CCN(c2nc(-c3ccco3)c3c(c2C#N)CC(C)(C)SC3)CC1	-13.7%	-7.2%
COc1ccccc1N(C(=O)c1snc(C(N)=O)c1N)C(C(=O)NC1CCCC1)c1ccc2ncccc2c1 (configuration not stated)	-3.3%	-13.5%
Cc1sc2ncnc(N[C@@H](Cc3c[nH]c4ccccc34)C(=O)O)c2c1C	i	-5.3%
Cc1c(C(=O)NCc2cccc(F)c2)oc2c1-c1[nH]ncc1CC2	1.4%	-6.3%
COC(=O)c1ccc(N=Nc2ccccc2)cc1	-3.4%	7.5%
Cc1ccc(Nc2nc(CSc3nnc(-c4ccccc4)n3C)cs2)cc1	-16.8%	-30.0%
Cn1c(=O)n(CCOc2ccc([N+](=O)[O-])cc2)c2ccccc21	i	-21.7%

Taken from the entries so far (19 entries):
SMILES	Vaccinia mCherry	VACV Venus inh
CCOc1ccc2c(=O)c(Oc3ccccc3OCC)coc2c1	-8.6%	-3.3%
NS(=O)(=O)c1ccc(N/N=C/c2cn(-c3ccccc3)nc2-c2cccs2)cc1	-19.9%	?
COc1ccccc1NC(=O)CCN1C(=O)C2CC=C(Cl)CC2C1=O (configuration not stated)	-17.7%	-14.3%
O=C1CN(S(=O)(=O)c2cc(Cl)ccc2Cl)c2ccccc2N1	i	-10.3%
CCCS(=O)(=O)NC(=O)C1(C)CCN(C(=O)c2ccc(F)c(Cl)c2)C1 (configuration not stated)	12.0%	4.1%
O=S(=O)(Nc1ccc(F)cc1)N1CCCCCC1	/	-18.5%
COc1cc2cc(C)nc(Cc3cccc4ccccc34)c2cc1OC	2.2%	8.4%
Cc1cc(-c2csc(NC(=O)c3ccc(=O)[nH]c3)n2)c(C)n1Cc1ccco1	-23.0%	3.6%
COc1cccc(C2C(C(=O)c3cc4ccccc4o3)=C(O)C(=O)N2c2cc(C)on2)c1OC (configuration not stated)	/	-5.9%
OCC1(Cc2ccccc2C(F)(F)F)CCN(Cc2ccccc2)CC1	-3.5%	-15.7%
COc1ccccc1-c1nc(=S)c(C(C)=O)c(C)[nH]1	-7.6%	-4.8%
CC(O)C(=O)N/N=C/c1cccc2ccccc12 (configuration not stated)	i	3.9%
CC(=O)N1CCN(c2nc(-c3ccco3)c3c(c2C#N)CC(C)(C)SC3)CC1	-13.7%	-7.2%
COc1ccccc1N(C(=O)c1snc(C(N)=O)c1N)C(C(=O)NC1CCCC1)c1ccc2ncccc2c1 (configuration not stated)	-3.3%	-13.5%
Cc1sc2ncnc(N[C@@H](Cc3c[nH]c4ccccc34)C(=O)O)c2c1C	i	-5.3%
Cc1c(C(=O)NCc2cccc(F)c2)oc2c1-c1[nH]ncc1CC2	1.4%	-6.3%
COC(=O)c1ccc(N=Nc2ccccc2)cc1	-3.4%	7.5%
Cc1ccc(Nc2nc(CSc3nnc(-c4ccccc4)n3C)cs2)cc1	-16.8%	-30.0%
Cn1c(=O)n(CCOc2ccc([N+](=O)[O-])cc2)c2ccccc21	i	-21.7%

New compounds follow.
SMILES	Vaccinia mCherry	VACV Venus inh
COc1ccccc1C(=O)NC(CCSC)C(=O)OCC(=O)c1ccc[nH]1 (configuration not stated)	-18.6%	-10.9%
COc1ccc(CNC(=O)C2CCN(C(=O)N3CCOc4ccc(Cl)cc43)CC2)cc1	-9.9%	-13.5%
Cc1cc(C)n2nc(CNS(=O)(=O)c3ccc(Cl)cc3)nc2n1	-4.2%	-9.2%
CO/N=C(\C(=O)N[C@@H]1C(=O)N2C(C(=O)O)=C(CSc3nc(=O)c(O)nn3C)CS[C@H]12)c1csc(N)n1	-13.9%	?
Nc1ccc(C(=O)OCC(=O)c2cccc([N+](=O)[O-])c2)cc1	i	8.6%
COc1ccc(-n2c(-c3ccco3)nc3c(cnn3-c3ccccc3C)c2=O)cc1	-6.8%&-12.9%	-11.0%&-14.6%
CSc1nnc(-c2cc3c(-c4ccccc4)nn(C)c3s2)n1C	-26.1%	-17.2%
CCCOc1ccc(S(=O)(=O)N2CCOCC2)cc1[N+](=O)[O-]	0.5%	-8.9%
Clc1cccc(OCc2nc(-c3ccncc3)n[nH]2)c1	-9.9%	6.4%
COc1ccc(CC(=O)OCC(=O)NCc2ccccc2Cl)cc1	4.5%	-6.5%
CC(C)CC(NS(=O)(=O)c1ccc2c(c1)oc(=O)n2C)C(=O)NCc1cccnc1 (configuration not stated)	i	-4.3%
CCOC(=O)CSc1nnc(-c2cccnc2)n1C	i	-10.8%
c1ccc(-c2nnc3oc(-c4cccs4)nn23)cc1	i	11.6%
Cc1cc(-c2ccc(/C=N/n3cnnc3)o2)c(C)c([N+](=O)[O-])c1	-0.4%	-7.2%
